UCH37 inh: inhibitors of human deubiquitinating enzyme UCH37; purified proteasome/UCH37, Ub-AMC cleavage fluorescence; inhibition, % (no concentration beside the values); actives 0.33% (n = 330,000);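 active = mean of two replicates above 20%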;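 also: 0% = compound-free wells with enzyme and 100% = wells lacking proteasome; stock transfer was 100 nL into about 20 µL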
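System: Proteasome-associated human UCH37 deubiquitinase; Input: 0.15 nM proteasome in added enzyme buffer; Also added: Ub-AMC substrate from 1 µM stock; Incubation: 30 min compound-proteasome preincubation then 25 min substrate reaction, room temperature; Detection: fluorescence, ex 355 nm, em 460 nm; Read-out: % inhibition of Ub-AMC cleavage fluorescence; Benchmarks: no-proteasome and no-compound wells.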
Ecoli growth: inhibitors of Escherichia coli growth; OD600, 23 h; active compounds read low; OD600 absorbance (concentration not given with the values); actives 0.21% (n = 330,000);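 active = OD600 absorbance below the run mean of sample wells minus 3.6 SD, in any replicate, cut at about 0.56 in these data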;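 also: stock transfer was 300 nL into about 60 µL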
FGF22 binding: FGF22 (human) thermal shift binding. Q9HCT0. recombinant FGF22 thermal shift, SYPRO orange fluorescence; percent of sucrose octasulfate shift, DMSO zero. calls only at 9.99 µM. actives 1.5% (n = 340,000). AID 651658;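 active = melting point raised past a set limit in the mean and every replicate; inconclusive = no clear call; three in four hits are not shown here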
Beta2AR agonist: agonists of human beta-2 adrenergic receptor inducing internalization | Am2.2-beta2AR cells, FAP receptor internalization, flow cytometry; reference of the scale not given here | response, % (no concentration beside the values) | actives 0.43% (n = 340,000) | P07550 | AID 504454;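 active = response above a set limit, near 3 SD of response in nonfluorescent compounds, cut at about 42% in these data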;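 also: stock transfer was 100 nL into about 11 µL; a reference agonist was the positive control; negative values mostly stem from fluorescent compounds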
HNF4A DNA FP: change in binding of human HNF4 alpha to DNA; P41235; HNF4a-FITC DNA binding, fluorescence polarization, 1 h; activity change, % at 10 µM; actives 0.3% (n = 360,000); AID 1224865; in the data active = activity change above about 30%, passing the limit was not always enough;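 also: controls were the assay level and a saturating level of protein; the project sought stronger binding though the title names inhibitors; some compounds called inactive have numbers as strong as hits; positive values seem to mean higher polarization but the record does not say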
LANA-H2B inh: blocks KSHV LANA binding to histone H2A/H2B; AID 2629; actives 0.6% (n = 320,000); inhibition, % (no concentration beside the values); cell-free LANA-H2A/H2B peptide, fluorescence polarization; in the data active = inhibition mostly above about 10%, no sharp cut-off; inactive = mostly below about 6.7%;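 also: stock transfer was 7.5 nL into about 10 µL; 0% = median of vehicle wells and 100% = median of positive control wells; one replicate is shown; the record names a cut of 25% in any replicate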
Target sequence (Q9QR71 whole entry, looked up): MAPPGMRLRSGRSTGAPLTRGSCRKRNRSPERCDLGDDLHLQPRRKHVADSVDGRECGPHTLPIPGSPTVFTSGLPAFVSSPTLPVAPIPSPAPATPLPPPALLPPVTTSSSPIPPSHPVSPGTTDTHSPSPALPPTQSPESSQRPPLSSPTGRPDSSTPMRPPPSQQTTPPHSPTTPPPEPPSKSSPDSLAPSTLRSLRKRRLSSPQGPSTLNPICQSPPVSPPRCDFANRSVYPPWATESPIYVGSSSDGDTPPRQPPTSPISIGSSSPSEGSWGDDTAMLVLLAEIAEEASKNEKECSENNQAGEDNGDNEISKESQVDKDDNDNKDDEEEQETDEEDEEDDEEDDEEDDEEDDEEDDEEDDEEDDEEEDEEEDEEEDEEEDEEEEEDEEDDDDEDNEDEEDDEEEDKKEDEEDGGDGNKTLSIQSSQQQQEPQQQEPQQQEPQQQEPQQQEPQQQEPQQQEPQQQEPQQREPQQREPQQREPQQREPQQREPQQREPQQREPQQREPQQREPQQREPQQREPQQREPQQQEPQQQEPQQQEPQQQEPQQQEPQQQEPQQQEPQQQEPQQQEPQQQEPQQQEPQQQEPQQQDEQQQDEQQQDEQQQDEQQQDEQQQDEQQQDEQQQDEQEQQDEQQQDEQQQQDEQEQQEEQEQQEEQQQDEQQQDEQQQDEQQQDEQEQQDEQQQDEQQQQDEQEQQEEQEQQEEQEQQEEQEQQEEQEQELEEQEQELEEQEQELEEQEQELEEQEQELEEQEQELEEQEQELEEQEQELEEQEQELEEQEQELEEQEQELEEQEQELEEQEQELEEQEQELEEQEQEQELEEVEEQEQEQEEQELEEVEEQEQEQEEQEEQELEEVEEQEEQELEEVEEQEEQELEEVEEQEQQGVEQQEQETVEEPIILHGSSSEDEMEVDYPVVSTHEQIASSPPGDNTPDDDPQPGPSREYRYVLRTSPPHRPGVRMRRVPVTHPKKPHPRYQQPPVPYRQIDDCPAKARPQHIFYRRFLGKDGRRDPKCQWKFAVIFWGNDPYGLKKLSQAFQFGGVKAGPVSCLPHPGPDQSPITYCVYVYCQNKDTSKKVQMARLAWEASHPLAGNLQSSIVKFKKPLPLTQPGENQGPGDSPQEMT
ALR inh: human ALR oxidase inhibition via reduced H2O2; P55789; purified ALR, DTT oxidation, H2O2 HRP-luminol luminescence; inhibition, % (no concentration beside the values); actives 3.8% (n = 290,000); AID 485317;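 active = mean and each replicate at 75% or more; inconclusive = only one of the two met; inactive = neither met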;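 also: stock transfer was 7.5 nL into about 7.5 µL; 0% = neutral wells and 100% = wells with inactivated enzyme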
* = called active by the depositor; i = inactive; ? = inconclusive; / = no result given; & = joins results of further samples.

No.	compound	UCH37 inh	Ecoli growth	FGF22 binding	Beta2AR agonist	HNF4A DNA FP	LANA-H2B inh	ALR inh
1	CC1(NC(=O)c2cccc(S(=O)(=O)N3CCN(c4ccccc4)CC3)c2)CCS(=O)(=O)C1 (stereo unspecified)	1.5	0.72	i	0	-1.8	1.4	13
2	CCNc1nc(Cl)nc(-c2cn(-c3ccccc3)c3ccccc23)n1	-323	0.71	i	5	0.7	-5.9	-24
3	COc1ccc(-c2cccc(NS(=O)(=O)c3cc([N+](=O)[O-])c(C)c([N+](=O)[O-])c3)c2)nn1	-1.5	0.71	i	0	0.0	/	/
4	COCCn1ccc2c(OCC(=O)NCCc3ccccc3)cccc2c1=O	-1.9	0.62	i	-7	2.1	4.1	-3
5	COC(=O)N/N=C/c1ccccc1OCCOc1ccc(OC)cc1	/	/	i	-2	3.6	-1.2	1
6	Cc1c(CNC(=O)c2nn3c(c2Cl)NC(c2ccccc2)CC3C(F)(F)F)cnn1C (stereo unspecified)	4.5	0.72	/	0	4.1	2.1	1
7	C=CCn1c(SCc2c(C)noc2C)nc2sc3c(c2c1=O)CCCCC3	4.7	0.69	/	-2	3.7	-1.7	46
8	O=C(c1ccc(S(=O)(=O)N2CCOCC2)cc1)N1CCN(c2ccccn2)CC1	0.2	0.7	i	-1	-0.8	-3.6	4
9	C=CCN(c1ccc(C(=O)Nc2cccc(C)c2)cc1)S(C)(=O)=O	3.0	0.71	i	5	-1.1	0.1	-32
10	CN(CC(=O)Nc1ccc(F)c(F)c1F)C(=O)C1CC(=O)N(c2ccc3c(c2)OCCO3)C1 (stereo unspecified)	-0.7	0.63	i	-4	-2.8	-1.7	-3
11	O=C(CN(C(=O)CCC(=O)Nc1ccccn1)c1ccc(F)cc1)NCCc1ccccc1	4.1	0.7	i	0	-1.6	-2.8	/
12	COCCN(C(=O)c1cc(-c2ccncc2)nc2ccccc12)c1c(N)n(CC(C)C)c(=O)[nH]c1=O	1.6	0.63	i	-5	1.5	2.7	-7
13	COc1ccc(/C=C/C(=O)NCCc2ccc(OC)c(OC)c2)cc1	0.4	/	/	-3	2.1	/	/
14	O=C(NCC(=O)N(CC1CCCO1)C(C(=O)NC1CCCCC1)c1ccc(F)cc1)c1ccco1 (stereo unspecified)	-1.5	0.71	/	-26	2.6	-0.1	5
15	COCCn1nnnc1CN1CCN2CCCC2C1 (stereo unspecified)	2.3	0.65	i	6	0.9	-1.3	-5
16	CC1(C)C2CCC1(CS(=O)(=O)N1CCN(c3ccccc3F)CC1)C(=O)C2 (stereo unspecified)	4.9	0.66	i	72*	-2.3	-0.4	-2
17	O=C(N/N=C/c1ccncc1)c1cccc([N+](=O)[O-])c1	/	/	i	/	/	2.2	-11
18	COc1cc(/C=N/Nc2nc(N3CCCC3)nc(N3CCCC3)n2)ccc1O	/	/	/	10	2.5	-6.1	99*
19	Cn1c2c(c(=O)[nH]c1=O)C(NC(=O)c1ccco1)(C(F)(F)F)C(=O)N2 (stereo unspecified)	4.2	0.71	/	-8	-1.6	2.2	-1
20	COc1ccccc1C(CNC(=O)c1cccc(NS(=O)(=O)c2ccc(C)c(F)c2)c1)N1CCCC1 (stereo unspecified)	-0.7	0.71	i	7	2.2	-7.6	-1
21	CC(O)Cn1nc([N+](=O)[O-])nc1N (stereo unspecified)	5.6	0.73	i	13	1.3	-9.1	-27
22	COc1ccc(OCC(=O)Nc2nc3c(s2)CCCC3)cc1	1.7	0.69	i	-10	1.8	/	40
23	COc1ccc(C2=NOC(C(=O)NCc3ccco3)C2)cc1 (stereo unspecified)	-1.8	0.66	/	1	0.1	-0.7	-6
24	CC(C)CNC(=O)CC1Nc2ccccc2NC1=O (stereo unspecified)	-8.2	0.7	/	-7	-2.1	-0.4	-1
25	CCN(CC)CCn1c(NS(=O)(=O)c2ccc(C)cc2)nc2ccccc21	1.5	0.64	i	5	1.3	-1.4	/
26	O=C(O)CCCN1C(=O)C(=O)/C(=C(/O)c2ccccc2)C1/C=C/c1ccccc1 (stereo unspecified)	9.9	0.69	i	-6	2.2	-0.8	-3
27	O=C(CSc1nnc(Cn2c(=O)sc3ccccc32)n1-c1ccccc1)N1CCOCC1	-1.1	0.7	i	-6	0.9	1.2	/
28	CC(=O)N1c2ccc(S(=O)(=O)N(C)Cc3ccco3)cc2CC1C (stereo unspecified)	1.3	0.68	i	5	1.6	4.6	-11
29	CCOC(=O)CC1C(=O)NCCN1S(=O)(=O)c1ccc(C)cc1 (stereo unspecified)	3.4	0.67	i	-5	8.8	10	-19
30	O=C(Cn1c(=O)oc2cc(S(=O)(=O)N3CCOCC3)ccc21)N1CCc2ccccc2C1	2.8	0.73	i	3	0.0	-0.7	-5
31	CCc1ccc(-n2c(SCC(=O)N3Cc4ccccc4CC3C(=O)O)nnc2-c2ccncc2)cc1 (stereo unspecified)	2.6	0.71	i	-1	-2.0	-1.3	25
32	O=C(COC(=O)c1ccc(F)c(S(=O)(=O)N2CCOCC2)c1)NCc1ccco1	2.7	0.71	i	9	-2.0	-14	-2
33	CCOC(=O)n1c(=O)n(Cc2ccccc2)c2ccccc21	2.0	0.7	/	-4	-0.6	-1.7	0
34	Cc1ccc(Cc2cnc(N3C(=N)SC(c4ccccc4)C3=O)s2)cc1 (stereo unspecified)	-2.2	0.69	/	4	-2.0	-2.6	1
35	COc1ccc(S(=O)(=O)NNc2nc(C)cc(C)n2)cc1[N+](=O)[O-]	4.4	0.7	i	6	-2.9	-2.5	-2
36	COc1ccc(-c2nc(N)nc(C(F)(F)F)c2-c2ccccc2OC)c(O)c1	-0.5	0.64	i	1	6.1	-6.0	4

Reformatted with two lines to a compound: entries from further up.
Second line of a record: UCH37 inh	Ecoli growth	FGF22 binding	Beta2AR agonist	HNF4A DNA FP	LANA-H2B inh	ALR inh
28. CC(=O)N1c2ccc(S(=O)(=O)N(C)Cc3ccco3)cc2CC1C (stereo unspecified)
  1.3	0.68	i	5	1.6	4.6	-11
25. CCN(CC)CCn1c(NS(=O)(=O)c2ccc(C)cc2)nc2ccccc21
  1.5	0.64	i	5	1.3	-1.4	/

Continued:
No.	compound	UCH37 inh	Ecoli growth	FGF22 binding	Beta2AR agonist	HNF4A DNA FP	LANA-H2B inh	ALR inh
37	COc1ccc(NC(=O)[C@@H]2CCCN2S(=O)(=O)c2ccccc2F)cc1S(=O)(=O)N1CCCCC1	1.8	0.73	/	-8	2.9	-1.9	-7
38	N=c1n(CC(=O)O)c2ccccc2n1Cc1ccccc1Cl	1.2	0.66	/	3	0.7	-4.6	-5
39	N#Cc1c(NC(=O)COC(=O)c2ccc(S(=O)(=O)N3CCCC3)cc2)sc2c1CCCCC2	4.7	0.72	i	8	6.3	5.3	-1
40	CCc1nc2ccc(C(=O)NCc3ccco3)cc2nc1CC	4.2	0.71	/	6	-3.5	0.7	-8
41	COc1ccc(Cn2cc(F)c(=O)n(CCC(C)C)c2=O)cc1[N+](=O)[O-]	1.8	0.71	/	4	0.1	1.5	-4
42	CC(C)CC(=O)Nc1nnc(S(=O)(=O)Nc2ccccc2)s1	1.9	0.68	i	0	0.5	-0.3	-2
43	CC1Sc2ccc(S(=O)(=O)CCC(=O)N3CCN(c4ccccc4F)CC3)cc2NC1=O (stereo unspecified)	9.2	0.7	i	4	1.4	-4.0	1
44	Cc1ccc(SCCNC(=O)/C=C/c2ccccc2Cl)cc1	7.2	0.7	i	-1	-1.4	-3.9	-5
45	Cc1cccc(-n2nnc(C(=O)NCc3ccc4c(c3)OCO4)c2N)c1	3.8	0.72	/	16	0.8	0.9	-15
46	COc1cc2c(cc1OC)C(C)N(S(=O)(=O)c1cccs1)CC2 (stereo unspecified)	1.3	0.69	i	2	1.5	-1.4	-10
47	Nc1nc(N2CCN(Cc3ccccc3)CC2)n[nH]1	2.9	0.71	i	4	-2.1	1.1	?
48	COn1c(SC(C)C)nc2ccccc2c1=O	0.3	0.7	/	-2	0.4	5.7	-4
49	O=C(CNC(=O)c1ccccc1F)N/N=C/c1cccs1	/	/	i	-11	2.1	1.2	/
50	S=C1SCN(CC2CC2)CN1CC1CC1	-0.6	0.64	i	-2	1.7	5.3	3
51	CCOc1cccc2sc(Nc3nc4ccc(NC(C)=O)cc4s3)nc12	-458	0.73	i	14	-4.3	5.8	2
52	O=C(CNC(=O)c1ccccc1)NCCc1nc2ccccc2[nH]1	-1.8	0.65	/	2	0.2	-1.1	-11
53	CN(C(=O)c1ccc(NC(=O)Cc2cccc([N+](=O)[O-])c2)cc1)C1CC1	5.8	0.63	i	-6	2.9	-2.8	2
54	COCCCNC(=O)C[C@H]1C[C@H](C(=O)N2CCCCC2)[C@@]2(C)c3[nH]c4ccc(Cl)cc4c3CCN2C1=O	4.3	0.7	i	-7	-1.5	/	/
55	Fc1ccc(-n2c(-c3ccco3)nc3nc4ccccc4nc32)cc1	-376	0.73	/	6	6.3	4.0	52
56	COc1ccccc1CNS(=O)(=O)CCNC1CC1	/	/	i	-8	2.1	/	/
57	Cc1nnc(SCC2=C(C(=O)O)N3C(=O)C(NC(=O)C(C)n4nc(C(F)(F)F)cc4C)C3SC2)s1 (stereo unspecified)	3.4	0.67	i	5	-3.4	-3.2	-37
58	Cc1ccc(NC2=NC(C(=O)Nc3ccc(C)c(C)c3)CC(=O)N2)cc1 (stereo unspecified)	-0.2	0.71	/	5	0.1	0.0	-4
59	CC1CCCC(C)N1C(=O)Cn1c(SCC(=O)Nc2ccc3c(c2)OCO3)nc2ccccc21 (stereo unspecified)	1.0	0.68	/	6	-0.2	-2.3	-7
60	CCOc1ccc(CCNC(=O)COC(=O)COc2ccccc2C)cc1OCC	3.5	0.7	i	2	1.2	1.0	-9
61	COc1ccccc1CNC(=O)CN(C)CC(=O)Nc1ccccc1Br	4.4	0.72	i	2	3.1	0.1	-10
62	COc1cccc(C2=CC(=O)CC(C)(C)C2)c1OC	1.4	0.65	i	-2	-2.1	3.8	4
63	N#Cc1cccc(Nc2c3c(nc4ccccc24)CCC3)c1	-2.3	0.61	i	-9	1.6	2.0	-6
64	CCc1ccc(C(=O)CN2CCSC2=N)cc1	3.3	0.66	i	-3	-0.3	-0.9	3
65	CSC(=NC1CCCCC1)NS(=O)(=O)c1ccccc1	3.4&0.7	0.7&0.69	i	-9&-1	2.3&-0.5	4.2	-3
66	O=C(NC(=S)Nc1ccc(S(=O)(=O)N2CCCCC2)cc1)c1ccc(Cl)cc1	-0.3	0.7	/	-6	1.8	-2.3	8
67	COc1ccc(NC(=O)CN(c2ccccc2)S(=O)(=O)N(C)C)cc1OC	0.8	0.72	/	-9	-7.8	5.1	-10
68	Cc1oc(-c2cccc(Cl)c2)nc1CN1CCC(C(=O)NCCCN2CC(C)CC(C)C2)CC1 (stereo unspecified)	2.4	0.73	/	6	2.9	-0.2	-4
69	CN(CC(=O)N1CCOCC1)S(=O)(=O)c1cc(Cl)ccc1Cl	-3.3	0.64	i	-4	2.5	0.5	-4
70	CC(=C1C(=O)c2ccccc2C1=O)N1CCN(C/C=C/c2ccccc2)CC1	5.6	0.63	/	-4	5.5	0.7	-17
71	Cc1ccc(CNC(=O)CCC2CCCN(Cc3cccc4c3OCO4)C2)o1 (stereo unspecified)	2.7	0.68	i	-8	1.7	0.5	1
72	COc1ccccc1CNC(=O)CCN=C1NS(=O)(=O)c2ccccc21	-2.9	0.7	i	10	3.6	-25	4
73	COc1ccc(CN2CCN(C(=O)c3cc(C4CC4)nn3-c3ccccc3)CC2)cc1F	1.6	0.69	i	3	2.7	-10	-3
74	COc1cccc(/C=C/C(=O)OCC(=O)NCC2CCCO2)c1 (stereo unspecified)	-6.6	/	/	-3	2.4	-0.1	6
75	COc1ccc2[nH]cc(C(=O)CN3CC(C)CC(C)C3)c2c1 (stereo unspecified)	5.2	0.69	i	1	0.8	0.0	-9

These rows are one share of the data, so the mix of outcomes need not match the whole.
